MLL AF4-AF9 inh: blocks AF4 peptide binding to human AF9; AlphaScreen, biotin-AF4 peptide binding to FLAG-AF9; 0.47% of 350,000 active; P42568; inhibition, % at 10 µM;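 active = every replicate reaching a set inhibition limit, whatever the replicate mean, cut at about 25% in these data; inconclusive = mean inhibition reaches that limit but some replicates miss it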;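 note: 0% = plate neutral control median and 100% = total signal loss; the record names both 10 and 1 µM as test concentration; the first replicate is given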
FGF22 binding: shifts melting point of recombinant human FGF22; recombinant FGF22 thermal shift, SYPRO orange fluorescence; percent of sucrose octasulfate shift, DMSO zero; calls only at 9.99 µM; 1.5% of 340,000 active;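 active = melting point raised past a set limit in the mean and every replicate; inconclusive = no clear call; three in four hits are not shown here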
Target sequence (Q9HCT0 whole entry, looked up): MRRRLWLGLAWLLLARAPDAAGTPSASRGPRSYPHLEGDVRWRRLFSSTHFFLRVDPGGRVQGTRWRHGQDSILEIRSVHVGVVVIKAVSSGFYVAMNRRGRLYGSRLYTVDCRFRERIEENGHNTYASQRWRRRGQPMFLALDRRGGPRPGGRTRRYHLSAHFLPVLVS
Vif TR-FRET: HIV-1 Vif–A3G interaction blockers – biochemical, TR-FRET, GST-Vif 1-94, biotin-A3G peptide, dose response retest, primary screen (AID 1117319); TR-FRET GST-Vif / biotin-A3G peptide binding; higher % means a stronger effect; test concentration not given here; strong numbers were not always called active; inhibition, %; hits with a dose series show IC50 in µM; 0.57% of 260,000 active;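 active = above the screen mean plus three standard deviations and confirmed in dose response; inconclusive = results disagree or hit not tested in dose response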;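 note: Vif residues 1-94 fused to GST binding biotinylated APOBEC3G peptide 110-148; 0% = full assay without inhibitor and 100% = GST in place of GST-Vif; retest series ran down from 100 µM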
RanGTP-Impb inh: disruptors of Ran-importin-beta complex formation – biochemical, FRET, CFP-Ran, YFP-importin-beta, homogeneous, primary screen | cell-free CFP-Ran/YFP-importin-beta FRET ratio | inhibition, % (no concentration beside the values) | 1.1% of 300,000 active | AID 2216;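 active = most replicates above 15%; inconclusive = exactly half above 15%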;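 note: 0% = DMSO wells and 100% = Ran loaded with GDP instead of GTP; wells of about 40 µL received 100 nL stock; the first replicate is given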
HNF4A DNA FP: change in binding of human HNF4 alpha to DNA. P41235. HNF4a-FITC DNA binding, fluorescence polarization, 1 h. activity change, % at 10 µM. 0.3% of 360,000 active; in the data active = activity change above about 30%, passing the limit was not always enough;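 note: controls were the assay level and a saturating level of protein; the project sought stronger binding though the title names inhibitors; some compounds called inactive have numbers as strong as hits; positive values seem to mean higher polarization but the record does not say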
Target sequence (P41235 whole entry, looked up): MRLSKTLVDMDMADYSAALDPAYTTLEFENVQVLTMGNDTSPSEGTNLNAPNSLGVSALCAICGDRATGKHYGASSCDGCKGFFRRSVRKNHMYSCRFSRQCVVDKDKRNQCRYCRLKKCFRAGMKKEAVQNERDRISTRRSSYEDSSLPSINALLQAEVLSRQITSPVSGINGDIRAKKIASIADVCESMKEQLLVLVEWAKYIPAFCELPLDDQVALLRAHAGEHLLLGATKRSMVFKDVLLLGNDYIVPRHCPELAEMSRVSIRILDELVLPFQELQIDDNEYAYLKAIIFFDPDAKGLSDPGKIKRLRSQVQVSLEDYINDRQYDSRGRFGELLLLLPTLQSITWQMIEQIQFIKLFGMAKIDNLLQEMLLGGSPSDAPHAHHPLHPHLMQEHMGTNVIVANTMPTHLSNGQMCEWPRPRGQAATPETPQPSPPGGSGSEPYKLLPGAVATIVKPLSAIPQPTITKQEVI
UCH37 inh: human UCH37 deubiquitinating enzyme inhibition; inhibition, % (concentration not given with the values); Q9Y5K5; AID 588478; 0.33% of 330,000 active; purified proteasome/UCH37, Ub-AMC cleavage fluorescence;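 active = mean of two replicates above 20%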;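 note: 0% = compound-free wells with enzyme and 100% = wells lacking proteasome; stock transfer was 100 nL into about 20 µL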
Target sequence (Q9Y5K5 whole entry, looked up): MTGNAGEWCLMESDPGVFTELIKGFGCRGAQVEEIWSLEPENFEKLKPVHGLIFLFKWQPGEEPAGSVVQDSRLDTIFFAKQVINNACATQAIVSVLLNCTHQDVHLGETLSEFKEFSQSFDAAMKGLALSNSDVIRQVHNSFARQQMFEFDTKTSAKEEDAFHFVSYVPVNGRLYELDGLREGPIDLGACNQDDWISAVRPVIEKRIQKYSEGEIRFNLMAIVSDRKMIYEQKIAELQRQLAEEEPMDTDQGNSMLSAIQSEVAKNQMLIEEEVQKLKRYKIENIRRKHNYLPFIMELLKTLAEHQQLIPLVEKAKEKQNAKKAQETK
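Material: human UCH37 enzyme supplied as purified proteasome complex / Amount: 0.15 nM proteasome as dispensed / Buffer or medium: pH 7.4 Tris-HCl (50 mM) with ovalbumin, ATP-MgCl2, DTT / Times: preincubation 30 min, reaction 25 min, room temperature / Technique: AMC fluorescence from Ub-AMC cleavage, excitation 355 nm, emission 460 nm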
E coli growth: E. coli growth inhibition; Escherichia coli growth, OD600, 23 h; stronger effect = lower value; OD600 absorbance (no concentration beside the values); 0.21% of 330,000 active;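 active = OD600 absorbance below the run mean of sample wells minus 3.6 SD, in any replicate, cut at about 0.56 in these data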;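 note: stock transfer was 300 nL into about 60 µL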
Active calls of the source: *; i = inactive; ? = inconclusive; . = no result given; & = joins results of further samples. An excerpt; rates above refer to the full screens.

Screens in order – FGF22 binding	Vif TR-FRET	E coli growth	HNF4A DNA FP	MLL AF4-AF9 inh	RanGTP-Impb inh	UCH37 inh
- CC1CCN(C2=NC(=O)/C(=C/c3ccccc3F)S2)CC1
→ i	-15%	0.64	5.6	6.0	-6.1	8.2
- O=C(Nc1ccc(-c2cn3ccccc3n2)cc1)c1ccc(Cl)cc1
→ .	4%	0.82	-1.1	.	?	-30
- CCCc1nc(SCC(=O)c2ccc3c(c2)NC(=O)CO3)[nH]c(=O)c1CC
→ i	.	.	4.9	-3.4	.	.
- O=C(COC(=O)Cc1ccccc1[N+](=O)[O-])NCC1CCCCC1
→ i	-6%	0.71	5.2	-1.1	-1.5	0.3
- COc1ccccc1NC(=O)N1CCC(C(=O)c2ccc(F)cc2)CC1
→ .	-1%	0.71	-6.7	.	-0.5	-1.9
- Cn1c(=O)[nH]c(=O)c2c1nc(NCc1ccccc1)n2Cc1ccc(F)cc1
→ i	.	0.66	-1.8	3.1	-1.0	1.9
- CN(CCCC(=O)Nc1ccc(Br)cc1F)S(=O)(=O)c1ccccc1
→ i	3%	0.67	0.5	-2.2	0.8	1.8
- O=C(Nc1ccccc1)C1Cc2c(-c3ccccc3Oc3ccccc3)ccnc2O1 (stereo unspecified)
→ i	.	.	8.1	-2.7	.	.
- CC(=O)Nc1ccccc1NC(=O)C/C(C)=N/NC(=O)C(=O)N1CCCCC1
→ i	.	.	3.4	-16	1.1	.
- COc1ccc(C(=O)NN/C(=N/S(=O)(=O)c2ccc(C)cc2)c2ccccc2)cc1
→ i	-4%	0.68	3.5	0.0	-2.2	-0.6
- CC(C)Cc1ccc(C(=O)Nc2ccc(Cc3ccncc3)cc2)o1
→ i	5%	0.68	2.0	2.8	-4.0	4.2
- COC(=O)Cc1csc(NCc2ccccc2)n1
→ i	0%	0.69	4.0	-0.1	1.7	2.2
- Cc1[nH]nc2c1/C(=N\O)CCC2
→ i	11%	.	1.0	0.0	-1.7	.
- CCOc1ccc(C(=O)COC(=O)c2nc3nccc(C)n3n2)cc1
→ i	.	0.71	-1.0	-1.1	.	2.4
- CCc1ccccc1N1C(=O)CN(Cc2cc(OC)c(OC)c(OC)c2)C1=S
→ i	-7%	0.7	2.2	-1.1	-0.9	2.8
- COc1ccc(S(=O)(=O)N2CCCCCC2)cc1NC(=O)CCCOc1ccccc1
→ i	-8%	0.7	0.2	1.3	.	-2.2
- Cc1cc(NC(=O)c2cc(-c3cccc(OCC(C)C)c3)nc3ccccc23)no1
→ i	.	0.75	-26	-0.1	4.8	-19
- CCN(C(=O)COC(=O)CC1CCCCC1)c1c(N)n(Cc2ccccc2)c(=O)[nH]c1=O
→ i	-4%	0.66	-0.5	-1.7	.	1.9
- CN(C)CC(C)(C)CNC(=O)C1CCN(CCCc2ccccc2)CC1
→ i	.	0.7	-4.3	3.9	0.0	-0.4
- CN1C=CC(C(C(N)=O)c2ccccc2)c2ccccc21 (stereo unspecified)
→ i	0%	.	3.4	5.1	.	.
- NC(=O)c1cc([N+](=O)[O-])ccc1NCC1CCCCC1
→ i	.	0.72	4.0	-11	.	5.6
- O=C(CN1C(=O)C2C3CCC(C3)C2C1=O)OCC(=O)c1ccc(Br)cc1 (stereo unspecified)
→ i	.	0.69	1.2	1.3	4.0	-0.2
- CCC(=O)N(CCC1(C(C)C)CCOC(C)(C)C1)Cc1ccco1 (stereo unspecified)
→ .	2%	0.67	-3.1	.	4.9	0.7
- CSCC(=O)N1CCc2ccc(NC(=O)c3ccccc3Cl)cc2C1
→ i	.	0.71	-1.4	-0.8	-3.3	0.4
- CCOc1ccc(Cn2nnc(C(=O)NCc3ccccc3)c2N)cc1
→ .	-1%	0.75	5.7	-5.6	-2.0	5.0
- COC(=O)Nc1sc2c(c1C(N)=O)CCCCCC2
→ .	0%	0.69	-1.2	.	1.8	-3.8
- O=C(CCC(=O)N1CCOc2ccccc21)N1CCOCC1
→ i	.	0.72	-0.7	-0.7	-3.1	6.1
- CC(=O)Nc1cc(C)ns1
→ i	.	.	2.6	0.4	.	.
- S=C(Nc1ccc(Cl)c(Cl)c1)N1CCCC1
→ i	.	0.7	2.5	1.6	-3.2	1.5
- COc1ccc(C(=O)/C=C/Nc2ccc([N+](=O)[O-])cc2)cc1
→ .	-1%	0.69	27	.	-0.9	0.3
- Cc1ccc(NC(=O)CC2NCCNC2=O)cc1Cl (stereo unspecified)
→ i	20%	0.68	-0.4	-1.5	-0.9	-0.8
- CC1(c2cccs2)CC(c2cccs2)=C(C#N)C(=O)N1 (stereo unspecified)
→ .	2%	0.74	1.9	.	2.4	12
- O=C(N/N=C/c1ccc(F)cc1)c1cc(-c2ccc3c(c2)OCO3)n[nH]1
→ i	?	.	3.2	0.9	-2.8	.
- Cc1c(Cl)cccc1NC(=O)CCC(=O)NNC(=O)CCC(=O)O
→ i	-6%	0.66	1.5	6.6	?	3.6
- CCCc1cc(-c2n[nH]c(=S)n2CC(C)C)cs1
→ i	0%	0.64	-5.0	-2.4	-1.2	3.3
- CN(C)C(=O)CSC1c2ccccc2C(=O)N1c1ccccc1 (stereo unspecified)
→ i	4%	0.63	-0.5	7.1	3.2	0.5
- CN(C)CCNc1c2c(nc3nnnn13)CCCC2
→ .	6%	0.69	-2.2	-1.8	-1.5	0.9
- CCOc1ccc(NC(=O)Cc2ccc(S(=O)(=O)N3CCCCC3)cc2)cc1OCC
→ i	.	0.68	-0.7	2.9	.	1.3
- CCN(CC)C(=O)CSc1nc2ccccc2c(=O)n1CC
→ .	20%	0.71	-1.6	.	2.7	.
- O=c1cc(CSc2ccc(Cl)cc2)nc(-c2ccccn2)[nH]1
→ i	.	.	-3.6	0.9	-2.8	.
- O=c1c2ccccc2[nH]c(=S)n1CCCN1CCOCC1
→ .	-2%	0.74	1.2	.	5.7	3.5
- Brc1ccc2nc(N3CCN(c4ccccc4)CC3)sc2c1
→ .	14%	0.72	1.6	1.6	0.4	3.5
- Cc1ccc(C)c(NC(=O)c2sc(Cl)nc2C)c1
→ i	1%	0.68	1.6	5.5	5.6	5.2
- Cc1cc(C)c2ccc(C(=O)O)nc2c1O
→ .	5%	0.66	-2.9	.	?	2.5
- CC(C)OCCCNC(=O)c1cc2c(=O)n(C)c3ccccc3c2n1C
→ i	-1%	0.74	-0.6	-1.0	-1.7	-1.3
- COc1ccc(-c2nnnn2C)cc1S(=O)(=O)NCc1ccccc1
→ i	?	0.66	1.1	5.9	-2.1	0.4
- COCCN(C(=S)Nc1c(C)cc(C)cc1C)C(C)c1cccnc1 (stereo unspecified)
→ i	.	0.61	-0.4	0.1	?	3.1
- O=C(CNc1ccc2c(c1)OCO2)N/N=C\c1cn(Cc2ccccc2)c2ccccc12
→ .	?	.	-3.0	.	-1.5	.
- Cc1nc(SCC(=O)c2ccc(F)c(F)c2)[nH]c(=O)c1Oc1ccc(Cl)cc1
→ i	-5%	0.66	-0.5	-3.4	-2.5	4.9
- CC(C)NC(=O)NS(=O)(=O)c1cnccc1NC1CC2CCC1C2 (stereo unspecified)
→ .	27%	0.83	1.8	.	?	4.2

Following part:
Screens in order – FGF22 binding	Vif TR-FRET	E coli growth	HNF4A DNA FP	MLL AF4-AF9 inh	RanGTP-Impb inh	UCH37 inh
- CCOc1cc2[nH]c(=S)n(CCOC)c(=O)c2cc1OCC
→ .	?	0.69	-0.6	.	-1.1	7.4
- O=[N+]([O-])c1ccc(Cl)c(S(=O)(=O)NC2=NCCC2)c1
→ i	-7%	0.68	-4.5	-18	.	1.0
- CC(=O)c1ccc(Nc2cnn(C34CC5CC(CC(CC(=O)O)(C5)C3)C4)c(=O)c2Cl)cc1
→ .	-5%	0.67	-4.5	0.6	-0.3	18
- CCN(CC)C(=O)Nc1ccc(Br)cc1
→ i	?	0.73	0.5	2.6	2.8	4.4
- O=C(CC(=O)Nc1ccccc1F)Nc1ccccc1F
→ i	1%	0.67	3.3	0.1	?	-3.0
- COc1ccc(-c2cc(C(=O)Nc3cc(OC)cc(C(=O)Nc4cccc(C(F)(F)F)c4)c3)[nH]n2)cc1
→ i	-5%	0.71	9.2&2.8	-1.0&1.5	?	0.1
- COc1cccc(-c2nc3nc(C)cc(C)n3c2Nc2ccc3c(c2)OCCO3)c1
→ i	.	.	3.4	10	.	.
- CCc1noc(C)c1C(=O)OCC(=O)NCc1ccc(Cl)cc1
→ i	3%	0.65	0.0	-0.3	.	-1.0
- CCn1cc(C(=O)NC2CCCCCC2)c2cc(OC)c(OC)cc2c1=O
→ .	2%	0.73	2.1	.	-1.2	2.8
- O=C(C1CCCO1)N1CCN(C(c2ccccc2)c2ccccc2)CC1 (stereo unspecified)
→ .	2%	0.67	0.0	.	-3.8	3.9
- COc1ccc(NC(=O)C[C@@H]2C(=O)N(Cc3ccccc3)CC2(C)C)cc1
→ i	.	.	-2.3	-1.5	.	.
- CNC(=O)c1ccccc1NC(=O)c1cccc(S(=O)(=O)N2CCCCC2)c1
→ .	-1%	0.69	-3.4	-1.6	1.4	1.5
- CCOC1=C2[C@H](c3ccccc3)N(S(=O)(=O)c3ccccc3)C[C@H]2n2c(=O)n(-c3ccccc3)c(=O)n2C1
→ i	.	.	-4.5	-64	.	.
- CCn1c(SCC(=O)N2CCN(c3ccccc3)CC2)nnc1-c1cc2cc(Cl)ccc2o1
→ .	7%&-9%	0.69	-2.5	.	5.3	1.3
- O=C(N1CCN(c2ccccc2F)CC1)C1(c2cccs2)CCOCC1
→ .	.	0.7	1.5	.	1.6	-0.3
- COc1ccc(/C=C/C(=O)NC(=S)N2CCN(c3ccccn3)CC2)cc1OC
→ i	.	0.72	-1.9	5.5	4.4	2.5
- Cc1ccccc1OCC(=O)Nc1ccc2c(c1)C(=O)c1ccccc1C2=O
→ i	.	0.76	22	-7.9	3.2	4.3
- CC(=O)NC(c1ccc2ccccc2c1)c1ccc2cccnc2c1O (stereo unspecified)
→ i	.	.	1.1	3.7	-7.4	.
- COc1ccc(/C=C/C(=O)OCC(=O)NCCNC(=O)COC(=O)/C=C/c2ccc(OC)cc2)cc1
→ i	.	0.66	0.7	1.0	2.3	-27
- CCN(CC)C(=O)C1CCCN(Cc2ccc(OC)c(C)c2)C1 (stereo unspecified)
→ .	-2%	0.65	2.6	.	-7.1	3.3
- NS(=O)(=O)c1ccc(N/C=C\C(=O)c2ccc3ccccc3c2)cc1
→ .	11%	0.65	-2.3	.	-3.0	-5.3
- O=C(Cc1nc2ccccc2[nH]1)NCc1ccco1
→ .	4%	0.72	0.9	.	35*	4.3
- Brc1ccc(N=Cc2ccccn2)cc1
→ .	1%	0.67	-0.8	.	1.7	3.4
- COC(=O)CSc1nnc(-c2ccoc2C)n1-c1ccc(OC)cc1
→ .	0%	0.7	0.2	.	4.9	-0.9
- COc1ccc(N=C2S/C(=C\c3ccc(C)o3)C(=O)N2CC(C)C)cc1
→ .	40µM*	.	-1.1	.	2.3	2.5
- Cc1ccsc1/C=C/c1ccc2ccccc2n1
→ .	?	0.65	23	.	6.9	-10
- CN(C)c1ccc(P(=O)(OCc2ccccc2)C(O)c2ccccc2F)cc1 (stereo unspecified)
→ i	11%	0.63	-1.7	-11	3.1	3.2
- COc1ccc(Cl)cc1NC(=S)N1CCN(S(C)(=O)=O)CC1
→ i	-7%	0.68	1.6	-7.2	-3.2	1.7
- CCOC(=O)C1=C(CN2CCCCCC2)NC(=O)NC1c1cccc([N+](=O)[O-])c1 (stereo unspecified)
→ i	.	0.67	1.0	3.5	0.0	2.5
- COc1ccc(CC(=O)Nc2ccccc2-c2ccccc2)cc1OC
→ i	-2%	0.66	0.7	5.5	0.5	6.7
- COc1ccc(C2C3=C(N=C4SCC(=O)N42)c2ccccc2CC3)cc1OC (stereo unspecified)
→ i	-2%	0.73	1.6	13	-3.5	5.4
